Screening data from PubChem BioAssay.
Beta cell apopt – inhibitors of cytokine-induced beta cell apoptosis, primary screen, luminescence | INS-1E cytokine-induced death, ATP luminescence, 48 h; percent of positive-control rescue, neutral wells zero | protection from apoptosis, % (concentration not given with the values) | 300,000 compounds, 0.8% hits | AID 435005, 2010;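 active = all replicates at 75% or more, or half of them and the mean; inconclusive = half reach 75% but not the mean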;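 note: 0% = cytokine-treated negative control wells and 100% = positive control rescue; higher means more ATP so stronger rescue from cytokine killing; wells of about 40 µL received 100 nL stock; the first replicate is given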
T cruzi inh – inhibitors of intracellular T. cruzi growth, primary screen, luminescence, NIH3T3 host cells | T. cruzi beta-gal in NIH3T3, 90 h | inhibition, % (concentration not given with the values) | 300,000 compounds, 1.4% hits;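 active = mean inhibition across valid replicates above about 55%, limit read from the data; inconclusive = mean below that limit but half or more replicates reach it; inactive = mean below it, under half of replicates reach it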;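 note: signal also drops with host cell toxicity which is not excluded here; 0% = plate median of DMSO wells and 100% = zero luminescence signal; higher percent means less beta-gal luminescence so fewer parasites; stock transfer was 50 nL into about 50 µL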
rRNA inh HTS – reduced GFP signal of wild-type E. coli, primary screen, bacterial rRNA inhibitor project, GFP/RFP fluorescence, OD600, single point | E. coli WT GFP vs humanized-ribosome RFP mutants, 24 h; active compounds read low; DMSO median 0, no signal -100 | GFP signal change (wild-type ribosome), % (concentration not given with the values) | 350,000 compounds, 1.6% hits;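 active = significant combined selectivity score with lowered wild-type GFP, culture density cut under 30%, mutant RFP and density less affected; inactive = any of these conditions unmet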; note: one replicate is shown; some compounds called inactive have numbers as strong as hits
AF4-AF9 inh – inhibitors of AF4 peptide binding to AF9, primary screen, biochemical, AlphaScreen, biotin-AF4 peptide, FLAG-AF9, single point; Protein AF-9 (Homo sapiens), P42568; inhibition, % at 10 µM; 350,000 compounds, 0.47% hits; AID 651704, 2012;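 active = every replicate reaching a set inhibition limit, whatever the replicate mean, cut at about 25% in these data; inconclusive = mean inhibition reaches that limit but some replicates miss it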;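 note: 0% = plate neutral control median and 100% = total signal loss; the record names both 10 and 1 µM as test concentration; the first replicate is given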
Target sequence (P42568 whole entry, looked up): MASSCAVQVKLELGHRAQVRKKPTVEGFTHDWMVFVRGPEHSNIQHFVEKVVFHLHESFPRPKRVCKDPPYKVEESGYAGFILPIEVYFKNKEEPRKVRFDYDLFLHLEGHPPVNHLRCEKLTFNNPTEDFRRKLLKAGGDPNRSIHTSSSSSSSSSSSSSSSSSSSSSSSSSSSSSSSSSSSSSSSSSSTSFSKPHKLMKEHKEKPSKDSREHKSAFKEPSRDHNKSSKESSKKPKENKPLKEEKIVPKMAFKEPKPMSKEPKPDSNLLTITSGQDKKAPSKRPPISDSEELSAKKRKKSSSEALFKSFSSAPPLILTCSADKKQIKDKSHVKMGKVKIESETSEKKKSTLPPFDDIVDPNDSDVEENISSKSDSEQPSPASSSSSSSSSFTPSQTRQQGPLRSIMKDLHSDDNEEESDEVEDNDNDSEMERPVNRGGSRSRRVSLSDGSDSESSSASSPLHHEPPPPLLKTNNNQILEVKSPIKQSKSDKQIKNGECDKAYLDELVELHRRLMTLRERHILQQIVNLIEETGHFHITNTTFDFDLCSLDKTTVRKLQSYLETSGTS
Calb FLC – C. albicans growth inhibition with fluconazole, primary screen, CaCi-2 strain, Alamar Blue fluorescence | C. albicans CaCi-2 (fluconazole-resistant clinical isolate) + fluconazole, 48 h | growth inhibition, % (no concentration beside the values) | 300,000 compounds, 0.57% hits;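 active = most replicates above 75%; inconclusive = exactly half above 75%; inactive = most below 75%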;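 note: all wells also contain fluconazole at 8 µg/ml as a sub-toxic cotreatment; 0% = median of DMSO wells and 100% = median of geldanamycin control wells; wells of about 8 µL received 7.5 nL stock; the first replicate is given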
ALR inh – inhibitors of human ALR sulfhydryl oxidase, primary screen, biochemical, H2O2 detection, HRP-luminol luminescence, single point | FAD-linked sulfhydryl oxidase ALR (Homo sapiens), P55789 | purified ALR, DTT oxidation | inhibition, % (concentration not given with the values) | 290,000 compounds, 3.8% hits | AID 485317, 2010;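 active = mean and each replicate at 75% or more; inconclusive = only one of the two met; inactive = neither met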;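 note: stock transfer was 7.5 nL into about 7.5 µL; 0% = neutral wells and 100% = wells with inactivated enzyme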
Target sequence (P55789 whole entry, looked up): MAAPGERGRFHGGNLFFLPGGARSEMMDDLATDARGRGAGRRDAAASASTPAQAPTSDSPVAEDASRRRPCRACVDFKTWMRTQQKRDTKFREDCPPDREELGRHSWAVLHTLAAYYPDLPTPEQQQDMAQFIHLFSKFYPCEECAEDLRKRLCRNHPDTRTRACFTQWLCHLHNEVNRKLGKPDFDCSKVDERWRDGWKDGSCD
FGF22 binding – binders of human FGF22 protein, primary screen, FGF22 synaptogenesis inhibitor project, biophysical, thermal shift, single point. recombinant FGF22 thermal shift, SYPRO orange fluorescence; percent of sucrose octasulfate shift, DMSO zero. calls only at 9.99 µM. Fibroblast growth factor 22 (Homo sapiens), Q9HCT0. 340,000 compounds, 1.5% hits. AID 651658, 2012;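 active = melting point raised past a set limit in the mean and every replicate; inconclusive = no clear call; three in four hits are not shown here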
Target sequence (Q9HCT0 whole entry, looked up): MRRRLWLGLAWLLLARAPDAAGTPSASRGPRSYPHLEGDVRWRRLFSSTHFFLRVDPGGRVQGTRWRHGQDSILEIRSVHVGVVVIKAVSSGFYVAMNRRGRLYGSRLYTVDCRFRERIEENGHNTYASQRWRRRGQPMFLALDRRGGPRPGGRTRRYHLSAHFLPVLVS
RanGTP-Imp inh – inhibitors of RanGTP-importin-beta interaction, primary screen, biochemical, FRET, CFP-Ran, YFP-importin-beta, homogeneous; Ran GTPase (GTP-bound) - importin-beta complex; cell-free CFP-Ran/YFP-importin-beta FRET ratio; inhibition, % (concentration not given with the values); 300,000 compounds, 1.1% hits; AID 2216, 2009;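 active = most replicates above 15%; inconclusive = exactly half above 15%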;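 note: 0% = DMSO wells and 100% = Ran loaded with GDP instead of GTP; wells of about 40 µL received 100 nL stock; the first replicate is given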
rRNA inh HTS OD600 – further read-out of rRNA inh HTS, marked with its call; OD600 change, %; measured here: OD600 growth;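 optical density of the mix in the first replicate; 0 = DMSO median and -100 = no signal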
rRNA inh HTS RFP – further read-out of rRNA inh HTS, marked with its call; RFP signal change, %; measured here: RFP humanized mutant strains;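 first replicate; 0 = DMSO median and -100 = no signal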
* marks the source's active call; other numbers are inactive results; i = inactive; ? = inconclusive; · = not tested or not shown. This is a subset; rates above refer to the full screens.

SMILES	Beta cell apopt	T cruzi inh	rRNA inh HTS	rRNA inh HTS OD600	rRNA inh HTS RFP	AF4-AF9 inh	Calb FLC	ALR inh	FGF22 binding	RanGTP-Imp inh
O=C(CSc1nc2ccccc2c(=O)n1-c1ccccc1F)N1CCOCC1	5	·	0	-12	-4.1	-2.7	·	-3	i	·
Cc1occc1C(=O)N1CCCC(Nc2ccc(C(C)C)cc2)C1 (centres undefined)	-7	-6	-40	-35	-6.8	9.7	-2	99*	i	0.6
COc1cc(OC)c(NC(=S)NCc2ccc(F)cc2)cc1Cl	-5	-2	-37	-54	-12	2.3	-23	·	i	1.6
O=C(NC(=S)N1CCN(c2ccc([N+](=O)[O-])cc2)CC1)c1ccccc1F	2	-12	·	·	·	0.2	-4	-7	i	-0.7
OCC1(Cc2ccccc2)CCN(Cc2ccc(-c3ccco3)cc2)CC1	-9	30	-6	-16	10	11	0	·	i	-1.2
CC(C)(C)C(=O)OCCn1c(=O)c2cc3c(=O)n(CCOC(=O)C(C)(C)C)c(=O)c3cc2c1=O	-10	-3	·	·	·	·	-1	-6	·	5.8
CC(c1ccco1)N(C(=O)c1ccccc1NS(=O)(=O)c1cc([N+](=O)[O-])ccc1Cl)c1ccccn1 (centres undefined)	-3	-16	-5	-6	-12	2.4	?	-4	i	-1.1
CCCCc1nn2c(N)c(/C=C3\C=Nc4ccccc43)c(=O)nc2s1	-7	6	·	·	·	·	19	38	·	-33
CC(C)OCCCn1c(NN)nc2ccccc2c1=O	2	1	10	16	-2.0	3.1	-13	19	i	-2.8
CCCCCCN1CC(O)=C(c2nc3ccccc3[nH]2)C1=N	-2	2	4	-1	-5.0	3.4	-11	5	·	-4.5
Cc1csc(NC(=O)CSCc2c(C)noc2C)n1	-1	5	1	7	-4.4	-10	4	-7	i	-0.7
Cc1ccc2[nH]c(=O)c(CN(Cc3ccco3)C(=O)c3ccncc3)cc2c1	1	-8	6	13	9.4	·	12	0	·	-3.7
O=C(C1CC1)N1CCc2cc(Br)cc(S(=O)(=O)NCc3ccc4c(c3)OCO4)c21	4	0	·	·	·	·	4	-12	·	-3.3
Cc1ccnc(NS(=O)(=O)c2ccc(NC(=O)Cc3ccc(F)cc3)cc2)n1	-3	8	24	20	2.2	-1.3	-4	6	i	-0.6
Cc1cc(C)c2nc(Cl)c(C3NC(=O)c4ccccc4N3)cc2c1 (centres undefined)	3	-20	3	15	-1.4	-8.0	-9	-7	i	0.0
Cc1nnc(SCC(=O)N2CCc3ccccc3C2)n1-c1ccccc1	4	-4	·	·	·	·	-7	31	·	11
Cc1ccc(C(=O)NS(=O)(=O)c2ccccc2)cc1	-2	1	17	9	-0.5	0.9	8	-8	i	-2.8
O=[N+]([O-])c1cnn(-c2nc(-c3ccccc3)cc(C(F)(F)F)n2)c1	-5	-9	11	6	5.3	-0.4	-1	3	i	-3.1
C=CCN(CC=C)C(=O)c1c(OC)cccc1OC	-1	-4	·	·	·	·	-1	·	·	1.2
O=S1(=O)N=C(N(CCO)/N=C/c2ccncc2)c2ccccc21	1	-19	-2	-4	0.5	-7.9	-21	0	i	10
O=C(CCN1CCN(c2ccccc2)CC1)N/N=C/c1ccc([N+](=O)[O-])o1	-6	96*	-53	-46	-18	-0.1	-2	-9	i	4.9
COc1ccccc1CNC(=O)COC(=O)c1ccc([N+](=O)[O-])o1	-8	·	4	11	-2.9	-1.2	·	9	i	·
CN(CCc1ccccc1)Cc1nc(-c2cnccn2)no1	-6	-15	40	7	2.7	1.3	-1	·	·	9.9
CC1CCCN(C(=O)C2CCCN(S(=O)(=O)c3cccc4nsnc34)C2)C1 (centres undefined)	0	9	·	·	·	·	-5	·	·	-0.1
O=C(Nc1ccc(Cl)cc1)c1ccsn1	1	-9	·	·	·	·	1	-4	·	3.7
CCCCN(C(=O)Oc1ccccc1)C1CCS(=O)(=O)C1 (centres undefined)	0	11	11	1	-1.3	0.9	5	47	i	1.9
Cn1c(=O)n(Cc2ccccc2)c(=O)c2c1nc1n2CCCN1Cc1ccccc1	5	15	·	·	·	·	5	-8	·	2.9
COc1ccc(-n2nc3c(N4CCC(C(=O)NCC(C)c5ccccc5)CC4)nnc(C)c3c2C)cc1 (centres undefined)	13	46	3	2	-0.8	1.2	2	-3	i	-1.6
Cc1ccsc1/C=C(\C#N)C(=O)NCc1ccco1	-4	-12	4	10	-0.1	-4.9	0	-26	i	-1.4
O=C(CCNS(=O)(=O)c1ccccc1C(F)(F)F)NCC(c1ccco1)N1CCCCC1 (centres undefined)	·	-15	18	13	0.2	-1.0	1	-1	i	-0.1
O=C(CSc1nnc(NC(=O)C2CCCCC2)s1)NCc1ccco1	-10	-3	13	13	1.1	-2.7	8	·	·	0.7
O=C(CNC(=S)N(Cc1ccccc1)Cc1cccnc1)NC1CCCC1	2	49	-11	1	-7.3	-0.2	-20	-2	i	3.9
CC(C)C(=O)NC(=S)Nc1ccc(CN2CCOCC2)cc1	3	-8	2	0	-1.9	-0.3	30	-9	i	0.3
Cn1c(-c2ccc(F)cc2)cnc1SCC(=O)NCc1ccco1	-2	-6	·	·	·	·	-6	38	·	-2.0
Cc1cccc(Sc2nc(-c3ccccc3)ncc2C(=O)O)c1	-2	11	-9	-15	-3.4	-2.1	109*	5	i	1.1
COC(=O)c1ccc(C(=O)OC)c(NC(=O)COc2ccccc2OC)c1	-6	-1	·	·	·	·	24	-8	·	-2.2
CCc1cccc(C)c1NC(=S)NCc1ccccc1	2	15	·	·	·	·	-26	-5	·	-0.3
OCCn1c(-c2ccc(F)cc2)csc1=Nc1ccccc1	-3	-31	·	·	·	·	-6	96*	·	-0.6
CCn1c(NCCc2ccc(OC)c(OC)c2)nc2c1c(=O)n(C)c(=O)n2C	9	-1	·	·	·	·	2	-6	·	5.0
COc1ccc(C(=O)N/N=C/C2CC=CCC2)cc1OC (centres undefined)	-2	-6	-2	1	-1.2	0.9	6	93*	i	3.4
O=c1c2sc3nc(N4CCOCC4)c4c(c3c2ncn1CCc1ccccc1)CCCC4	5	·	·	·	·	·	31	-2	·	-0.2
O=C(CSc1nnc(Cc2ccccc2)o1)Nc1cccc(F)c1	-10	5	-6	-1	-0.1	0.5	3	4	i	1.3
Oc1ccc(N=Nc2ccc(Br)cc2)c(O)c1	24	60*	-3	-1	-1.5	4.7	-3	99*	i	3.1
CCC/C(O)=C1\C(=O)CC(C)(C)CC1=NCCO	·	-2	·	·	·	·	-6	-5	·	2.2
O=C(CCS(=O)(=O)c1cc2c(cc1Cl)NC(=O)CO2)NCCc1ccccc1	-2	36	6	16	22	-1.1	0	-1	i	-2.5
COc1ccc(-c2cn[nH]c2-c2ccc(OCC(=O)NN)cc2O)cc1	-10	0	1	12	-3.7	0.4	-16	78*	i	-2.2
O=[N+]([O-])c1cc(-c2nnc(C34CC5CC(CC(C5)C3)C4)o2)cc([N+](=O)[O-])c1	·	57*	·	·	·	·	2	2	·	0.6
O=C(O)c1cn(CCOc2ccccc2Cl)c2ccccc12	·	-13	9	7	-0.6	-0.5	-8	64	i	4.8
O=C(Nc1ccc(N2CCN(C(=O)c3ccccc3)CC2)c(Cl)c1)c1ccco1	11	13	·	·	·	·	-38	-4	·	0.0
O=C(COC(=O)c1cccnc1Cl)NC1CCCc2ccccc21 (centres undefined)	-1	·	2	-13	2.4	-3.0	·	-7	i	·
O=C(O)c1ccc(/C=N/NC(=S)NCCN2CCOCC2)cc1	0	-18	8	7	-1.3	-2.1	4	0	i	-1.7
C[C@H](NC(=O)c1nc[nH]c1C(=O)N1CCN(c2ccccc2)CC1)C(=O)OC(C)(C)C	-5	0	9	4	4.4	-22	-9	?	i	0.9
c1csc(Cc2nn3c(-c4ccncc4)nnc3s2)c1	-23	4	·	·	·	·	55	0	·	-5.1
O=C(Nc1ccc(Cl)c(Cl)c1)N1CCSC1c1ccco1 (centres undefined)	103*	-2	·	·	·	·	-11	-1	·	-3.9
Cc1nc2cc(NCc3nc4ccccc4n3Cc3ccccc3)ccc2n1C	17	13	·	·	·	·	12	45	·	1.8
CC1CCCC(C)N1C(=O)COC(=O)CNC(=O)c1ccc(Cl)cc1Cl (centres undefined)	-12	-3	1	-1	-1.5	2.1	-8	0	i	-1.3
O=C(NCc1ccc(F)cc1)C1CCCN1C(=O)NCc1ccccc1 (centres undefined)	2	-41	·	·	·	·	24	41	·	8.1
COc1ccc(NC(=S)N(CCCN2CCOCC2)Cc2cn(C)c3ccccc23)cc1OC	2	2	·	·	·	·	0	9	·	8.5
Cc1cccc(NC(=O)CCCCC(=O)Nc2cccc(C)c2)c1	1	·	30	18	2.6	1.3	-3	-14	i	-0.3
COc1cc(=O)[nH]c(SCc2c(F)c(F)c(F)c(F)c2F)n1	0	-1	·	·	·	·	1	7	·	?
The results go on.
SMILES	Beta cell apopt	T cruzi inh	rRNA inh HTS	rRNA inh HTS OD600	rRNA inh HTS RFP	AF4-AF9 inh	Calb FLC	ALR inh	FGF22 binding	RanGTP-Imp inh
COc1cccc(Nc2nc(-c3sc(NC(=O)c4ccccc4)nc3C)cs2)c1	17	-12	-1	11	2.1	7.9	15	45	i	-1.9
O=C(c1ccc2c(c1)N(Cc1ccccc1F)C(=O)c1ccccc1S2(=O)=O)N1CCCC1	-1	13	-5	-8	2.2	0.1	1	-13	i	-3.1
COc1ccc(C(=O)NC(=S)Nc2ccc3c(c2)Cc2ccccc2-3)cc1	9	-52	·	·	·	·	4	-22	·	1.9
Fc1cccc(CO/N=C/c2c(-c3ccccc3)nc3ccc(Cl)cn23)c1	8	51	·	·	·	·	4	-7	·	2.4
Cc1ccccc1C(=O)NC(=S)Nc1ccccc1C(F)(F)F	5	-16	·	·	·	·	-6	-12	·	0.1
O=C(CCc1nnc2ccc(NCc3ccco3)nn12)N1CCN(c2ccccc2F)CC1	-5	6	-5	-20	3.5	4.1	-27	13	i	11
CCN(CCCNC(=O)Cn1ncc2c([nH]c3ccc(C)cc32)c1=O)c1ccccc1	-5	-1	5	12	-2.5	-2.7	22	2	i	4.4
Cc1nc2sccn2c(=O)c1S(=O)(=O)N1CCN(c2ccc(F)cc2)CC1	3	-12	-8	-8	-1.7	-6.2	-5	95*	i	3.2
COc1ccc(C(=O)NC(=S)Nc2ccc3oc(=O)ccc3c2)cc1[N+](=O)[O-]	0	16	2	0	-1.3	-0.6	-4	1	i	-2.2
